High-throughput results: PubChem, PCMD
Calb biofilm kill: mixture kills Candida albicans biofilm cells | C. albicans biofilm persisters + clotrimazole, fluorescence viability; primary screen in compound mixtures of four per well | inhibition, % at 7.6 µM | 120,000 compounds, 0.02% hits | AID 1242;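 active means inhibition above 30.3% in the primary screen of four-compound pools, then above 30% when the compound was retested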;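 further: compounds exposed to preformed 24 h biofilms for 48 h; the number belongs to the whole pool; some results filed as inactive read as strong as hits; inactives centre near 12; 0% = biofilm with clotrimazole alone and 100% = kill control; retested singly at about 60 µM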
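System: C. albicans CAF4-2 wild-type biofilms; Medium: RPMI/MOPS medium, pH 7.0; Reagent: Clotrimazole, 50 µg/mL; Times: biofilm formation 24 h, compound exposure 48 h, 37 °C; Detection: 2-h Alamar Blue fluorescence, 535/590 nm excitation/emission; Evaluation: percent inhibition of biofilm viability.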
Starred values were filed as active, the others as inactive. Not all compounds are listed, so the mix of outcomes need not match the whole.

Compound,Calb biofilm kill
CCCNC(=O)CSc1nccn1Cc1ccco1,-0.2
Cc1nn(CC2CC2)c(=O)n1N(C)c1ncc(C(F)(F)F)cc1Cl,22.4
O=C(NNC1=Nc2cccc3cccc1c23)c1ccc(Br)cc1,14.8
Cc1ccc(NC(=O)Nc2ccc(F)cc2F)c(OC(F)F)c1,22.8
CC(O)CNCc1cccc2ccccc12 (stereo not drawn),8.9
COc1ccc(C)cc1NC(=O)COC(=O)C1CCN(C(=O)c2ccc(Cl)cc2)CC1,3.4
O=C(/C=C/c1ccco1)OCC1CCCN2CCCCC12 (stereo not drawn),24.4
Cn1c(=O)cc(OCC(=O)NCc2cccs2)c2ccccc21,17.6
N#CCC(=O)NC(=O)NCC1CC1,9.4
Cc1ccccc1CSc1nc(-c2ccccc2)cc(=O)[nH]1,18.0
O=S(=O)(Nc1nc2ccccc2nc1Cl)c1ccccc1,4.2
O=C(Nc1ccc(Cl)cc1)Nc1nnc(CSc2ccc(Cl)cc2)s1,19.1
Brc1ccc(/C=N/c2nc3ccccc3n2CCN2CCOCC2)cc1,9.9
O=C(c1ccc(F)cc1)N(C(=O)c1ccc(F)cc1)c1ncccn1,-8.0
OC(CNCC#Cc1ccccc1)c1ccccc1 (stereo not drawn),9.3
COc1ccc(C(=O)NC=C2C(=O)OC(C)(C)OC2=O)cc1,11.6
CC(C)NC(=S)NN=C1CCCCCCCCCCC1,2.2
COc1ccc(NC(=O)c2c3c(nc4ccccc24)CCN(Cc2ccccc2)C3)c(OC)c1,7.0
Cc1nonc1CN(C)C(=O)CC1C(=O)NCCN1Cc1cccc(C(F)(F)F)c1 (stereo not drawn),-4.2
CCCCn1cnc2cc(C)c(C)cc21,27.8
CC(C)(C)c1ccc(C(=O)c2c[nH]c(C(=O)NCCc3ccccn3)c2)cc1,7.0
O=C(Nc1ccccc1)C1CCCCC1,13.7
Nc1n[nH]c2cc(=O)n(-c3ccc(Cl)cc3)nc12,15.3
CCN(CCn1cccn1)Cc1cn[nH]c1-c1cccc2ccccc12,17.0
NC(=O)COc1ccccc1C(=O)O,2.4
CNC(=O)c1ccc(Nc2nnc(-c3ccc(C)c(S(=O)(=O)NCC4CCCO4)c3)c3ccccc23)cc1 (stereo not drawn),2.8
N#Cc1c(N)nc2c(c1-c1ccc3c(c1)OCO3)CCc1ccccc1-2,13.8
CC(=O)c1ccc(NC(=O)CSc2ccc3nnc(-c4cccnc4)n3n2)cc1,13.8
CC(C)(C)c1ccc(C(=O)Nc2ccc(Oc3cccnc3)nc2)cc1,17.6
NC1=C(c2ccc([N+](=O)[O-])cc2)C(=O)CO1,14.2
Clc1cnc2nc(SC/C=C/c3ccccc3)[nH]c2c1,21.9
CCCCCCCCNC(=S)NCCN1CCCCC1,11.3
COc1ccc(N2CCN(c3nc(Nc4ccc(C)c(F)c4)nc(N4CCCC4)n3)CC2)cc1,11.2
O=S(=O)(c1ccccc1)N(CC1CO1)c1ccccc1 (stereo not drawn),5.8
CCn1c2ccccc2c2cc(NC(=O)COC(=O)c3cc(OC)c(OC)cc3OC)ccc21,17.2
Cc1cc(C)cc(NC(=O)N2CCCC2C(=O)NCc2ccco2)c1 (stereo not drawn),16.2
Cc1ccc(/C=N/NC(=O)CNC(=O)c2ccc(S(=O)(=O)N(C)C)cc2)cc1,10.2
Cn1c(N)c(C(=O)COC(=O)c2cccnc2Cl)c(=O)n(C)c1=O,-2.8
CC1CC(=O)C(C2c3ccccc3CCN2C(=O)CCl)C(=O)C1 (stereo not drawn),12.3
O=C(CCc1nnc(-c2ccccc2)o1)NCc1cc(F)ccc1F,16.5
Cc1ccc(NC(=O)c2cc3c(s2)CCCC3)cc1S(=O)(=O)Nc1ccccc1Cl,5.3
COc1ccc2c(c1)CC[C@@H]1[C@@H]2CC[C@]2(C)C(=O)CC[C@@H]12,17.6
COc1cc(/C=N/NC(=O)CN2CCOCC2)ccc1OCc1ccccc1,3.0
CCOC(=O)N1CCN(C(=O)COc2cccc3c2CCN(Cc2ccc(F)cc2)C3=O)CC1,8.2
Cc1ccc(S(=O)(=O)N2CCOCC2)cc1NC(=O)COC(=O)CNC(=O)c1ccccc1,20.0
O=C(CNS(=O)(=O)c1ccc(Br)cc1)OCc1cc(=O)n2cc(Br)ccc2n1,8.0
CN1CCN(NC(=S)Nc2ccccc2)CC1,12.5
CCOc1ccc(-c2nc(CCl)cs2)cc1,8.0
CC(=O)c1ccc(Oc2cc(C(F)(F)F)cnc2C(N)=O)cc1,14.6
Cc1ccc(NC(=S)N(CCN2CCCCC2)Cc2ccco2)cc1C,4.0
COCCn1c(SCC#N)nnc1-c1ccc([N+](=O)[O-])cc1,15.0
COc1ccc(CCCC(=O)N/N=C\c2cccs2)cc1,14.9
CC(=O)c1cccc(S(=O)(=O)NCC2CCCCC2)c1,6.8
Cc1oc(C(C)(C)C)cc1C(=O)Nc1ccc(N2CCOCC2)cc1,12.8
COc1ccccc1NC(=O)COC(=O)Cc1c[nH]c2ccccc12,17.5
CCOC(=O)C1ON2CCCCC2C1(O)C(F)(F)F (stereo not drawn),5.8
CC(=O)c1nnn(-c2ccc(Cl)cc2C#N)c1C,6.4
C/C(CCN1CCCCc2nc(C)c(C)cc21)=N\OC[C@@H](O)[C@H]1O[C@@H]2OC(C)(C)O[C@@H]2[C@H]1O,9.2
CC(C)CC(NC(=O)C1CCC(C)CC1)C(=O)NCc1ccco1 (stereo not drawn),20.0
O=C(NC1CCN(Cc2ccccc2)CC1)c1ccc(Cn2c(=S)[nH]c3ccc(N4CCOCC4)cc3c2=O)cc1,11.2

(list continues)
Compound,Calb biofilm kill
CC(=O)OCC1=C(C(=O)O)N2C(=O)[C@@H](NC(=O)Cc3cccs3)[C@H]2SC1,17.6
COc1ccc(/C(O)=C2/C(=O)C(=O)N(CCN(C)C)C2c2cccnc2)cc1OC (stereo not drawn),98.0
COc1ccc(-n2c(Cn3nnc4ccccc43)n[nH]c2=S)cc1,1.4
CC(=O)N/C(N)=N/c1nc(=O)c2ccccc2s1,13.1
Cc1ccc(-c2nn(-c3ccccc3)cc2C(=O)NN2CCN(C)CC2)cc1,10.2
CCCCc1n(CC(=O)c2ccc(Cl)cc2)c2ccccc2[n+]1C,24.9
N/C(=N\O)c1ccccc1-n1cccc1,18.3
O=C(CSc1nc(-c2cccs2)cc(C(F)(F)F)n1)Nc1cc(OCC(F)(F)F)cc([N+](=O)[O-])c1,15.9
O=C(NCCN1CCOCC1)c1cccnc1SCc1ccccc1Cl,9.6
Cc1nn(CC2CC2)c(=O)n1-c1ccc(F)cc1,6.4
CC(=O)Nc1ccc(N/C=C2/CCCC2=O)cc1,25.0
CN1C(=O)COc2ccc(C(=O)c3oc4ccccc4c3-c3cnc4c(c3)COc3ccccc3-4)cc21,5.4

Reprinted from the part before: 2 compounds; new compounds follow.
Compound,Calb biofilm kill
CC(=O)Nc1ccc(N/C=C2/CCCC2=O)cc1,25.0
CN1C(=O)COc2ccc(C(=O)c3oc4ccccc4c3-c3cnc4c(c3)COc3ccccc3-4)cc21,5.4
Cc1ccc(/C(O)=C/c2nc3cc(C)ccc3oc2=O)cc1,1.0
Cc1cc(C(=O)N/N=C/c2cc(Cl)cc([N+](=O)[O-])c2O)n[nH]1,7.4
O=C(Nc1ccc(Cl)cc1)Nc1ccc(N2CCC(C(F)(F)F)CC2)nc1,15.1
CCCCCc1cc(=O)oc2c(C(CCN3CCCCC3)c3ccc(OC)cc3)c(OC)cc(OC)c12 (stereo not drawn),16.5
O=c1c2ccccc2nc(-c2ccccc2Cl)n1O,11.0
Cc1nn(-c2ccc(Cl)nn2)c(=O)c2ccccc12,20.5
CC(C)Cc1cc(C(=O)Nc2ccc(Br)cc2)no1,15.7
NNC(=O)C(=O)Nc1ccc(O)cc1,22.0
CC1(C#CC[N+]2(C)CCCCC2)CCC2C(O1)c1ccccc1OC2(C)C (stereo not drawn),24.8
Cc1c(/C=N/NC(=O)COc2ccccc2[N+](=O)[O-])c2ccccc2n1C,18.4
CCC(=O)Nc1c(S(=O)(=O)c2ccccc2)c2nc3ccccc3nc2n1Cc1ccccc1,7.6
CC(C)(C)C(=O)O/N=C(\N)c1ccc(Oc2cc(Cl)cc(Cl)c2)c([N+](=O)[O-])c1,-6.2
CCc1ccc(-n2c(SCC(=O)N3Cc4ccccc4CC3C(=O)O)nnc2-c2ccncc2)cc1 (stereo not drawn),6.3
NC(=O)c1ccc(NC(=O)COC(=O)C2(c3ccccc3F)CCCC2)cc1,5.7
CNC(=S)N(Cc1ccco1)Cc1cc2cc3c(cc2[nH]c1=O)OCCO3,4.9
CCC(Sc1nc2cc(OC)c(OC)cc2c(=O)n1CCc1ccc(OC)c(OC)c1)C(=O)NCCOC (stereo not drawn),12.4
COC(C(=O)NCc1ccc(C)cc1)c1ccccc1 (stereo not drawn),16.0
CC(=O)NC(=S)Nc1ccc(N2CCOCC2)c(S(=O)(=O)Nc2cc(Cl)ccc2Cl)c1,16.3
Cc1cccc(N2CCN(C(=O)c3ccc4nc[nH]c4c3)CC2)c1C,15.5
COC(=O)c1cc(C)sc1NC(=O)CC1Nc2ccccc2NC1=O (stereo not drawn),32.1
CC(O)(C#CCN1CCCCC1)c1ccccc1 (stereo not drawn),9.6
CCN(CC(=O)NC(C)(C)C)C(=O)c1ccc(Br)cc1,-1.6
Cc1nc2sc3c(c2c(=O)n1NC(=O)CCl)CCCC3,19.6
Cc1c(N=NC2=C(O)CC(C)(C)CC2=O)c(=O)n(-c2ccccc2)n1C,10.8
COc1ccc(C=C(C(C)=O)C(C)=O)cc1OC,10.8
CCCn1c(N)c(C(=O)COc2ccc(Br)cc2F)c(=O)n(C)c1=O,6.3
O=C(COc1ccc([N+](=O)[O-])cc1)NCc1cccnc1,13.7
COc1cccc(/C=N/NC(=S)Nc2cccc(S(=O)(=O)N(C)C)c2)c1,26.7
Nc1c(Cl)ncnc1N1CCN(c2ncnc(Cl)c2N)CC1,7.8
O=C(NCC(c1ccco1)N1CCN(c2ccccc2)CC1)c1ccc2c(c1)OCO2 (stereo not drawn),16.9
Cc1ccc(C(=O)OCC(=O)NC(=O)c2cccn2C)cc1[N+](=O)[O-],19.6
CCOC(=O)CSc1ncnc2c1cnn2-c1ccc(C)cc1C,11.5
OCCC1CN(Cc2cnc(-c3ccc(Cl)cc3)nc2)CCN1C1CCCCC1 (stereo not drawn),16.2
COc1cccc(CN(C)C(=O)c2csc3c2CCCC3)c1OC,1.1
CC(=O)c1ccc(OCCCC(=O)NC2CCCc3ccccc32)cc1 (stereo not drawn),23.4
Cn1cc(Br)c(C(=O)NN2C(=O)C3C(C2=O)C2C=CC3C23CC3)n1 (stereo not drawn),10.6
Cc1csc2c(=O)sc(NC(=O)c3cccs3)nc12,11.1
CN(C)c1cc[n+](CC(=O)N2c3ccccc3Sc3ccccc32)cc1,13.7
O=[N+]([O-])c1cc(Cl)c2cccnc2c1O,18.8
CCOC(=O)C1CCC(CN(Cc2ccccc2)S(=O)(=O)c2ccc([N+](=O)[O-])cc2)CC1 (stereo not drawn),27.6
CC1CCN(C(=S)NC2CC3CCC2C3)CC1 (stereo not drawn),15.8
COc1ccc(NS(=O)(=O)c2cc(NC(=O)c3ccc(=O)[nH]c3)ccc2N2CCOCC2)cc1,-6.2
CCN(CC)c1ccc(N=Nc2ncn[nH]2)cc1,14.6
Cc1cc2cc(C)c(NCCNC(=O)c3ccccc3)nc2cc1C,29.9
CCOC(=O)NC(=O)CSc1nc(-c2ccc(C)c(C)c2)cn1-c1ccccc1,17.9
COC(=O)C(Cc1ccccc1)NS(=O)(=O)c1ccccc1Br (stereo not drawn),10.9
CC(=O)c1cc(NC(=O)c2ccc(C)cc2)c(=O)oc1C,15.0
COC(=O)/C=C1\NC(=O)C(C)S1 (stereo not drawn),9.2
CC(=O)N/C(=C\c1ccccc1)C(=O)OCC(=O)N1CCCCCC1,-3.0
O=C(CN1C(=O)c2cccc3cccc1c23)NCC1CCCO1 (stereo not drawn),-6.5
Nc1nc(-c2ccc(C(=O)O)cc2)cs1,6.9
S=C(NCc1cccnc1)Nc1cc(Cl)cc(Cl)c1,14.5
CCCN(CCC)C(=O)c1ccccc1C(=O)N(CCC)CCC,8.2
COC(=O)c1cc(NC(=O)c2ccccc2F)cc(C(=O)OC)c1,6.2
Cc1occc1C(=O)N/N=C/c1ccccn1,11.4
Cc1ccc(N2CCN(CC(O)COc3ccc([N+](=O)[O-])cc3)CC2)cc1 (stereo not drawn),5.6
c1ccc2c(c1)OCC(CNc1ncnc3sccc13)O2 (stereo not drawn),18.6
COc1ccc(NC2=C(Cl)C(=O)N(CCc3ccccc3)C2=O)cc1,9.6
CC(=O)c1sc(-c2cccc(Cl)c2)nc1C,9.2
COc1cc(S(=O)(=O)NC2CCCCC2)c(C)cc1C,13.5
